# ugtP null kill = growth inhibition of S. aureus ugtP deletion strain. 330,000 tested, 0.54% active. S. aureus RN4220 ugtP deletion, OD600 growth, 16 h; some inactives read as strong as hits. growth inhibition, % (no concentration beside the values). AID 1259309;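 active = z-score under -3 and OD600 up to 0.15 on both plates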;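 also: plate controls were untreated wells for no effect and antibiotic for full effect; wells of about 80 µL received 100 nL stock; the first replicate is given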
# RN4220 kill = S. aureus RN4220 growth inhibition | OD600, 16 h | inhibition, % (no concentration beside the values) | 330,000 tested, 0.33% active;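 active = z-score of -3 or lower and OD600 up to 0.18 on both plates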;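 also: plate controls were untreated cells for no effect and reference antibiotic for full effect; stock transfer was 100 nL into about 80 µL; one replicate is shown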
# Bead autofluor = counter-screen for toxin protease inhibitors: compound fluorescence. fluorescence intensity (concentration not given with the values). 360,000 tested, 3.1% active. AID 624483. compound autofluorescence counterscreen, microsphere flow cytometry; hits give high values;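 active = at least 3 SD above the mean of all compounds, about 16000 in these data; inconclusive = too few beads counted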;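 also: 100 nL of 1 mM stock went into each well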
# Mtb hypoxia rep = Mtb hypoxia fluorescent reporter inhibition. M. tuberculosis hypoxia-regulated fluorescent reporter, fluorescence. fluorescence inhibition, % (no concentration beside the values). 300,000 tested, 0.1% active;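 active = 35 to 45% if threefold the growth effect, above 45% if 1.5-fold the growth effect; inactive = the rest, general growth blockers included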;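 also: wells of about 50 µL received 100 nL stock; 0% = vehicle wells and 100% = reference inhibitor wells; whole bacteria with a GFP reporter of the hypoxia response; strong numbers were not always called active; many hits fall short of the cut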
# PrP UTR inh = suppresses PrP 5' UTR mRNA reporter expression; cell-based PrP 5' UTR mRNA reporter, plate reader; inhibition, % (concentration not given with the values); 340,000 tested, 0.35% active; AID 488862;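 active = every replicate at 50% or more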;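 also: 0 = median of the neutral control wells; tested in H4 reporter cells; numbers are from one replicate; inactives centre near -14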
# BJeLR lethal = BJeLR cell viability loss; 300,000 tested, 0.17% active; inhibition, % (test concentration not listed); BJeLR (HRASV12) viability, CellTiter-Glo ATP luminescence, 48 h; reference of the scale not given here;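 active = replicate mean above 50%; inconclusive = above 50% but judged a plate artefact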;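 also: 50 nL library stock added to about 25 µL; numbers are from one replicate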
# Mtb hypoxia rep growth = second read-out of Mtb hypoxia rep, no call of its own (marks repeat the call); growth inhibition, %; measured here: M. tuberculosis growth (absorbance);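 0% = vehicle and 100% = reference antibiotic; read after six days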
# Active calls of the source: *; ? = inconclusive; nt = not tested or not shown; & = joins results of further samples.
# Results follow in this order: ugtP null kill	RN4220 kill	Bead autofluor	Mtb hypoxia rep	Mtb hypoxia rep growth	PrP UTR inh	BJeLR lethal
O=C(CN1CCN(c2cccc(C(F)(F)F)c2)CC1)NCc1ccccc1
 : 5	0.5	2924	-5	-4	5	2
COc1ccccc1N1CCN(c2ccc3cc(S(=O)(=O)N4CCCCC4)ccc3n2)CC1
 : -12	-9.3	5406	2	13	5	8
O=C(O)CCCn1cc(NC(=O)c2ccc(Br)o2)cn1
 : 0	3.0	4524	-3	3	-19	0
CCOC(=O)C1=C(COC(=O)CNC(=O)c2ccc(C(C)(C)C)cc2)NC(=O)NC1C (stereo not drawn)
 : 9	3.8	4575	2	0	-18	-8
Nc1c(-c2ccccn2)cnn1-c1nc(-c2ccc(F)cc2)cs1
 : nt	nt	3292	nt	nt	-25	2
COc1ccc(OC)c(S(=O)(=O)N2CCC(C(=O)N3CCc4ccccc4C3)CC2)c1
 : 0	-14	3191	5	-2	3	4
Cc1ccccc1C(=O)NNC1CC(=O)N(c2ccc3c(c2)OCCO3)C1=O (stereo not drawn)
 : 6	0.3	2608	5	-4	-12	3
Nc1ccc2oc3ccccc3c2c1
 : 2	-0.7	7346	4	4	-53	18
CC(C)(C)c1ccc(C(=O)Nc2cccc(C(=O)N3CCOCC3)c2)cc1
 : 1	2.3	4281	-5	4	-11	-2
COc1ccc(C2=NS(=O)(=O)N(C)C(C(=O)Nc3cc(OC)c(OC)c(OC)c3)=C2)cc1
 : 0	0.6	5363	-1	5	3	-3
CCOC(=O)CCc1c(C)c(C#N)c2[nH]c3ccccc3n2c1=O
 : 39	43	4745	nt	nt	-8	2
CCN(CC)c1ccc(C=c2sc3nnc(-c4ccccc4Cl)n3c2=O)cc1
 : -7	-3.4	nt	2	7	nt	nt
CCOc1ccccc1C1N(c2ccc(F)cc2)C(=O)C2CCCN21 (stereo not drawn)
 : -1	-1.6	8468	8	1	-20	-6
CC1CN(C(C)CO)C(=O)c2cccc(NC(=O)Nc3ccc(C(F)(F)F)cc3)c2OC1CN(C)C(=O)NC1CCCCC1 (stereo not drawn)
 : 1	-11	nt	-11	5	nt	nt
CC(NS(=O)(=O)c1ccccc1)C1CC2CCC1C2 (stereo not drawn)
 : -11	4.2	4322	7	6	-8	2
CN1CCN(S(=O)(=O)c2ccc(Cl)c3ccccc23)CC1
 : 1	2.0	5143	7	2	-8	-2
CC1CN=C(Nc2cccc3ccccc23)S1 (stereo not drawn)
 : 3	7.9	2613	-23	-10	-24	10
COc1ccc(CCNc2cc(N3CCN(C(=O)c4ccccc4F)CC3)ccc2[N+](=O)[O-])cc1OC
 : -14	-9.3	2881	-1	-2	-28	12
CCc1ccc(N(C(C)=O)c2nc(CCl)cs2)cc1
 : 9	0.6	3263	8	4	-14	-2
CCC(CO)Oc1cc(NC(=O)c2ccc([N+](=O)[O-])cc2)c2ncn(C(C)C)c2c1 (stereo not drawn)
 : 17	6.4	3264	-1	4	-21	nt
COc1ccc(OC)c(NC(=S)NC(=O)c2ccc(Br)o2)c1
 : 0	1.0	5722	-17	8	-21	-12
CN(Cc1cccc(F)c1)C(=O)CSc1nnc(C2CC2)n1C1CC1
 : 6	5.0	nt	-5	-1	-17	nt
O=C(N/N=C/c1cccnc1)c1sc2ccccc2c1Cl
 : nt	nt	5940	nt	nt	-31	4
COCc1c(C(=O)Nc2ccc(C)c(S(=O)(=O)N3CCOCC3)c2)oc2ccccc12
 : 3	5.1	4008	13	1	-18	nt
CC(=O)Nc1nnc(Cc2ccccc2)s1
 : nt	nt	8571	nt	nt	-12	3
CCOC(=O)c1ccc(S(=O)(=O)Nc2ccccc2-c2nnn(CC)n2)cc1
 : -1	8.6	10553	8	1	-14	5
N=C1C(c2nc3ccccc3s2)=C(O)CN1CCCO
 : -11	-15	2708	21	-18	-33	-1
CC(C)n1nnnc1SCC(=O)N1CCN(C(=O)c2ccco2)CC1
 : 1	1.3	3637	-2	3	-5	0
CCCCN1C(=O)N(c2nnc(C(C)(C)C)s2)C(O)C1c1ccc(C)cc1 (stereo not drawn)
 : -9	3.3	4966	-3	5	-8	0
Cc1nnc(SCCn2c(N3CCN(C)CC3)nc3c2c(=O)n(C)c(=O)n3C)s1
 : 10	5.1	?	11	-4	-2	2
Cc1cc(NC(=O)/C(C#N)=C/c2ccc(-c3cccc(C(F)(F)F)c3)o2)n(-c2ccccc2)n1
 : 2	7.5	2518	10	7	-8	-2
O=C1/C(=C/c2ccc(O)c(O)c2)Oc2cc(O)ccc21
 : 8	11	5685	nt	nt	-63	nt
CC(C)NC(=O)Cn1cc(S(=O)(=O)N2CCCC2)c(S(=O)(=O)N2CCCC2)c1
 : 16	7.5	4762	1	-4	-19	-1
Cc1cc(NC(=O)c2ccc(Cl)cc2)c(C)cc1O
 : 4	-0.5	4031	2	7	-40	9
CN(C(=O)c1cnccn1)c1c(N)n(Cc2ccccc2)c(=O)[nH]c1=O
 : 3	0.1	5007	-6	2	-7	-5
CCCS(=O)(=O)N1CCC(C(=O)NCc2ccco2)CC1
 : -3	1.4	2890	7	2	-11	-8
CCCCCNC(=O)CCn1c(=O)oc2ccccc21
 : 6	6.1	6752	13	10	-21	-5
COc1ccc(S(=O)(=O)NNC(=S)NCCc2ccccc2)c(OC)c1
 : 6	7.4	5536	9	0	-34	7
Cc1ccccc1Cc1c(C)nc2c(C(=O)N3CCN(Cc4ccc5c(c4)OCO5)CC3)cnn2c1C
 : -2	-0.2	11846	10	5	9	-4
CC1CCCCC12NC(=O)N(CC(=O)c1ccc[nH]1)C2=O (stereo not drawn)
 : 1	2.9	3588	6	4	-5	6
COc1ccc(NC(=O)N(C)CC2Oc3ccc(NS(=O)(=O)c4cccs4)cc3C(=O)N(C(C)CO)CC2C)cc1 (stereo not drawn)
 : 1&5	5.8&7.8	nt	2&9	4&7	nt	nt
O=C(/C=C/c1ccccc1)NC(=S)N1CCSCC1
 : 1	1.7	3797	-6	5	-24	0
O=c1[nH]c(Cc2ccc(F)cc2)nc2scc(-c3ccc(F)cc3)c12
 : -7	-3.6	2331	16	3	-9	8
Cc1cccc(-c2nnc3n2N=C(c2ccccc2Br)CS3)c1
 : nt	nt	2841	nt	nt	3	3
CCOC(=O)c1[nH]c2ccc(OC)cc2c1NC(=S)N1CCN(c2ccccc2)CC1
 : nt	nt	2312	nt	nt	-33	-15
CCCC(=O)Nc1nc2ccc(S(=O)(=O)N3CCCCC3)cc2s1
 : 9	1.4	5838	2	12	-30	13
CC(=O)NC(Cc1ccc(F)c(F)c1)C(=O)NC1CCN(C(=O)c2ccc(Cl)cc2)CC1 (stereo not drawn)
 : 6	7.1	2977	-15	3	-1	-11
CC(=O)N1CCOc2cc(S(=O)(=O)NC(C)c3ccccc3)c(Cl)cc21 (stereo not drawn)
 : 18	19	4406	6	1	-11	-6
O=C(Cn1cnc2c(oc3ccccc32)c1=O)NCc1ccco1
 : -7	4.6	8713	3	8	-60	19
CC1CCN(C(=O)CSC2=NS(=O)(=O)c3cc(F)ccc3N2)CC1
 : 10	4.3	4605	5	3	-16	-2
O=C(N1CCCCCC1)N1CC1
 : 13	6.3	2825	9	4	-3	nt
O=C(COc1ccccc1Cl)Nc1cc(Cl)ccc1O
 : 7	6.4	4568	2	9	-109	1
CCOC(=O)Cn1c(=NC(=O)c2cc(-c3cccs3)nc3ccccc23)sc2cc(S(N)(=O)=O)ccc21
 : 5	-12	1977	1	-4	-11	-18
Cc1ccc2cc(C3CC(c4ccco4)=NN3C(=O)CCCC(=O)O)c(Cl)nc2c1 (stereo not drawn)
 : 15	4.4	4192	-5	5	nt	9
CC(OC(=O)c1cccc(-n2cnnn2)c1)C(=O)N(C)c1ccccc1 (stereo not drawn)
 : 0	2.8	?	1	4	2	-8
Cc1cc(OCc2nn[nH]n2)c2c(-c3ccccc3)cc(=O)oc2c1
 : -5	4.9	20272*	5	11	-20	-2
O=C(O)CCCC(=O)NNC(=O)c1cccc(Br)c1
 : -4	2.6	2275	1	3	-27	3
Cc1ccc(NC(=O)CN2CCCCC2)c2c1CC(C)(C)O2
 : 1	4.5	1975	8	4	-15	-2
COc1cc(/C=N/NC(=O)CC(=O)NC2CCCCC2)ccc1O
 : nt	nt	3292	nt	nt	-1	-8
Cc1ccc(N/N=C(\C#N)C(=N)N2CCCCCC2)cc1
 : nt	nt	4396	nt	nt	-48	3

# (next part)
# Results follow in this order: ugtP null kill	RN4220 kill	Bead autofluor	Mtb hypoxia rep	Mtb hypoxia rep growth	PrP UTR inh	BJeLR lethal
CCOC(=O)CCNC(=O)c1ccc2nc(C3CCCCC3)oc2c1
 : 3	2.3	3513	12	16	-15	-9
O=C(COC(=O)CN1C(=O)c2ccccc2C1=O)NC1CCCC1
 : -2	3.9	3860	8	-3	-19	0
Cc1nnc(SCC(=O)NCC2CCCCC2)n(N)c1=O
 : 1	9.7	2384	9	7	-18	-11
Cc1ccc(OCCC(=O)OCC(=O)NC(=O)NCc2ccccc2)cc1
 : 6	3.1	nt	-1	-2	-1	3
Cc1cc(NC(=O)COC(=O)c2ccco2)no1
 : 18	7.7	4487	13	8	-6	-30
O=C1CC(NS(=O)(=O)c2ccc([N+](=O)[O-])cc2)CN1c1cccc(F)c1 (stereo not drawn)
 : 11	26	?	1	-16	-13	5
CCCNC(=O)Nc1cccc(NC(C)=O)c1
 : 5	12	4003	2	1	-23	9
Cc1ccc(S(=O)(=O)N2CCN(C(=O)CCn3cncn3)CC2)cc1
 : 3	-0.5	6558	-6	5	-20	3
COc1cccc(NC(=O)COC(=O)c2cc(S(=O)(=O)N3CCOCC3)ccc2C)c1
 : -9	2.1	3916	11	11	-10	1
O=C(OCCc1cc2ccccc2c(=O)o1)c1cccc(Br)c1
 : -10	12	3034	5	1	-6	nt
CCOc1c(Cl)cc(/C=N/O)cc1OC
 : nt	nt	4852	nt	nt	-4	-8
COc1ccccc1OCc1ccc(C(=O)NCC(C)C)o1
 : 9	3.5	2080	10	6	-9	4
O=C(c1cc2c(s1)CCCC2)N1CCN(Cc2ccc3c(c2)OCO3)CC1
 : 13	-1.7	3181	nt	nt	5	-9
CC(C)(C)Sc1nc(O)cc(=O)[nH]1
 : 9	7.1	3152	-1	-9	-17	-5
CCOC(=O)/C(C#N)=C/c1cc2ccccc2nc1Cl
 : 7	2.8	10883	14	6	nt	-14
COc1ccc2c3c1OC1C(=O)CC[C@@]4(O)[C@@H](C2)N(C)CC[C@]314 (stereo partly drawn)
 : -8	2.9	4451	nt	nt	27	nt
O=C(Nc1nnc(Cc2ccccc2)s1)c1cccnc1
 : 5	11	4241	-1	-3	5	0
CCCCC(=O)Nc1c2c(nn1-c1ccc(C)cc1)CS(=O)(=O)C2
 : 5	-1.9	3542	3	6	-14	8
O=C(CCC1CCCC1)N1CCN(C2CCCC2)CC1
 : 2	7.8	4960	nt	nt	-15	1
COc1ccc(CN2CCNC(=O)C2CC(=O)NCCC2=CCCCC2)cc1OC (stereo not drawn)
 : 4	2.6	3945	2	5	-9	-7
CC1CCc2c(sc(NC(=O)COC(=O)c3ccccc3NCc3ccco3)c2C#N)C1 (stereo not drawn)
 : -17	-3.7	22501*	-3	-5	-31	2
Cc1ccccc1-c1nc(CN2CCSCC2)c(C)o1
 : 0	2.7	3384	-8	9	-24	-4
O=C(COc1ccc(-c2nnc(N3CCCCC3)c3ccccc23)cc1)N1CCCCC1
 : -3	0.0	3074	nt	nt	0	-2
Cc1ccsc1C(=O)C1CCCN(Cc2cccc(OCCO)c2)C1 (stereo not drawn)
 : -2	8.0	5096	11	3	-22	0
CCOC(=O)c1c(C)[nH]c(C(=O)C(C)OC(=O)c2ccc(NC(=O)CC#N)cc2)c1C (stereo not drawn)
 : -4	-2.3	3795	4	1	-2	nt
CC(NC(=O)c1nc[nH]c1C(=O)NC(Cc1ccccc1)C(=O)OC(C)(C)C)C(=O)OCc1ccccc1 (stereo not drawn)
 : 9	11	nt	4	-2	nt	nt
CC(=O)Nc1ccc(C=NNC(=O)CCN2CCN(c3ccccc3)CC2)cc1
 : 4	-2.4	nt	11	0	nt	nt

# An excerpt of these results, bar-delimited:
SMILES | ugtP null kill | RN4220 kill | Bead autofluor | Mtb hypoxia rep | Mtb hypoxia rep growth | PrP UTR inh | BJeLR lethal
O=C1CC(NS(=O)(=O)c2ccc([N+](=O)[O-])cc2)CN1c1cccc(F)c1 (stereo not drawn) | 11 | 26 | ? | 1 | -16 | -13 | 5
CCCNC(=O)Nc1cccc(NC(C)=O)c1 | 5 | 12 | 4003 | 2 | 1 | -23 | 9

# From PubChem
